StopGo reporter: High Throughput Screening for Foot and Mouth Disease Virus Antivirals. actives 1.2% (n = 410,000). human cells with a luciferase reporter of 2A StopGo recoding; control for the full effect not named in the record. AID 1159524, 2015. Potency, µM (top dose mostly 57.9 µM), for the others: at the highest dose signal change, negative = less light; active = well fitted falling curve with a large enough effect; inconclusive = small, poorly fitted or top-dose-only effect; inactive = no such curve, though single readings can be large or run the other way; tested in HEK293T cells; further: on the % scale 0 is the no-effect control and ±100 the full control effect; nearly all actives have a fitted effect of over 45% in size; luciferase light after 4 h
MARV entry inh: qHTS for inhibitors of binding or entry into cells for Marburg Virus; AID 540276, 2011; Potency, µM (highest dose often 37.8 µM), without a hit: at the top dose activity change, negative = inhibition, hits mostly inhibitors; Marburg virus pseudotyped entry inhibition, cell reporter; control for the full effect not named in the record; about a third of the inactives were read at about 46 µM; actives 1.8% (n = 300,000); active = well fitted inhibition curve with a large enough effect; inconclusive = small, poorly fitted or top-dose-only effect, or effect the other way; inactive = flat fitted curve, though single readings scatter; tested in HEK293 cells; about a fifth of its hits are not listed in these tables; further: on the % scale 0 is the no-effect control and ±100 the full control effect; luciferase read-out
LASV entry inh: qHTS for Inhibitors of binding or entry into cells for Lassa Virus | Potency, µM (doses to about 37.9 µM), inactives show at the highest dose activity change, negative = inhibition, actives largely listed as inhibitors | actives 1.2% (n = 300,000) | Lassa virus pseudotype entry inhibition, cell reporter; control for the full effect not named in the record; active means well fitted inhibition curve with a large enough effect; inconclusive means small, poorly fitted or top-dose-only effect, or effect the other way; inactive means flat fitted curve, though single readings scatter; tested in HEK293 cells; further: on the % scale 0 is the no-effect control and ±100 the full control effect; nearly all actives have a fitted effect of over 50% in size; luciferase read-out
NS1 function inh: qHTS Assay for Inhibitors of Influenza NS1 Protein Function. S. cerevisiae slowed by influenza A NS1, growth recovery by OD600. Potency, µM (series often up to 46.1 µM), without a hit: top-dose activity, positive = more growth. actives 0.4% (n = 270,000). AID 2326, 2010; active means well fitted rising curve with a large enough effect; inconclusive means small, poorly fitted or top-dose-only effect; inactive means no such curve, though single readings can be large or run the other way; further: nearly all actives have a fitted effect of over 50% in size
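OD600 was taken as the measure of yeast growth restored by compound in an NS1-expressing S. cerevisiae strain. Cells had been washed out of glucose medium and diluted 1:100 into galactose -URA medium, pH 6.0.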
SARS PLpro yeast: qHTS of Yeast-based Assay for SARS-CoV PLP. S. cerevisiae expressing SARS-CoV PLpro, growth rescue; control for the full effect not named in the record. Potency, µM (series often up to 32.9 µM), inactives show at the top dose activity, positive = growth rescue. actives 0.19% (n = 330,000). AID 485353, 2010; active means well fitted rising curve with a large enough effect; inconclusive means small, poorly fitted or top-dose-only effect; inactive means no such curve, though single readings can be large or run the other way; further: 0% is about no effect; nearly all actives have a fitted effect of over 55% in size; growth read by luminescence after 48 h
Cruzain inh noDet: qHTS Assay for Promiscuous and Specific Inhibitors of Cruzain (without detergent); Cruzipain (Trypanosoma cruzi), P25779; purified cruzain, Z-FR-AMC fluorescence, no detergent; Potency, µM, without a hit: max response, negative = inhibition, actives largely listed as inhibitors; actives 2.3% (n = 200,000); AID 1476, 2009;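 further: plate controls were enzyme without inhibitor for no effect and buffer without enzyme for full effect; nearly all actives have a fitted effect of over 40% in size; top concentration of the series not given in the record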
Target sequence (P25779 123-467 limits assumed): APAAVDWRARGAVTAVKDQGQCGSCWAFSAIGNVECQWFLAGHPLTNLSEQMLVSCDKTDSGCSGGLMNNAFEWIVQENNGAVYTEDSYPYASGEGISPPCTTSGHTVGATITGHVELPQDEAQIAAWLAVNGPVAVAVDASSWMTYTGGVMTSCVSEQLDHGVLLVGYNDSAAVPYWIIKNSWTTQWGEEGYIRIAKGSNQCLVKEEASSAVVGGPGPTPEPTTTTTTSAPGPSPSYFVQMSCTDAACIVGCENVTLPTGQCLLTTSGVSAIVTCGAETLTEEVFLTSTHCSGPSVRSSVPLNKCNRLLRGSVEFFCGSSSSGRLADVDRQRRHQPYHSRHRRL
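Purified cruzain at 1.5 nM, pre-incubated 15 min with compound at room temperature in 100 mM sodium acetate pH 5.5, 5 mM DTT, 0.00005% Triton X-100. Reaction started with 2 uM Z-FR-AMC; AMC fluorescence increase over 60 s gives rate.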
RE007 growth inh: qHTS Assay for Inhibitors of the HIV-1 protein Vpr | Potency, µM (top dose mostly 92.2 µM), without a hit: top-dose activity change, negative = less growth | AID 651644, 2012 | S. pombe RE007 Vpr strain, BacTiter-Glo ATP luminescence, 24 h; control for the full effect not named in the record | actives 0.21% (n = 360,000); active = well fitted falling curve with a large enough effect; inconclusive = small, poorly fitted or top-dose-only effect; inactive = no such curve, though single readings can be large or run the other way;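 further: on the % scale 0 is the no-effect control and ±100 the full control effect; nearly all actives have a fitted effect of over 50% in size; the assay follows cell death caused by Vpr and the record does not say whether a fall means rescue or toxicity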
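Fission yeast strain RE007, carrying one chromosomally integrated HIV-1 vpr copy, was seeded at OD 0.01 in PMG+AL medium with 23 nL pinned compound. After 24 h at 30 °C and 99% humidity, viability was read by BacTiter-Glo luminescence.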
Cruzain inh Det: qHTS Assay for Promiscuous and Specific Inhibitors of Cruzain (with detergent); Cruzipain (Trypanosoma cruzi), P25779; purified cruzain, Z-FR-AMC fluorescence, 0.01% Triton; Potency, µM, for the others: max response, negative = inhibition, actives largely listed as inhibitors; actives 0.43% (n = 200,000);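 further: plate controls were neutral wells for no effect and buffer without enzyme for full effect; nearly all actives have a fitted effect of over 40% in size; top concentration of the series not given in the record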
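Detergent-containing arm of a paired screen for aggregation-based inhibition: 0.01% Triton X-100 present. Cruzain at 1.5 nM cleaved 2 uM Z-FR-AMC at pH 5.5 with 5 mM DTT; AMC fluorescence gain over 60 s measured activity.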
* = called active by the depositor; & = joins results of further samples; [ ] = another dose, or the depositor's remark. Unless noted, the call rests on the fitted dose curve; in most records, active means well fitted curve in the direction sought with a large enough effect; inconclusive means small, poorly fitted or top-dose-only effect, or another doubt; inactive means no such curve, though single readings can be large; an effect the other way counts as inactive or inconclusive. Potency means the concentration at half of the fitted maximal effect.

COC(=O)c1cc(C(=O)OC)cc(N2C(=O)CC(N3CCN(c4ccccc4)CC3)C2=O)c1 (stereo not given) was read as StopGo reporter -10%, MARV entry inh 23%, LASV entry inh 3%, NS1 function inh -3%, SARS PLpro yeast -7%, Cruzain inh noDet inconclusive, RE007 growth inh -23% and Cruzain inh Det 3.3%.
For O=C(O)c1ccccc1C(=O)NCCc1c(C(=O)O)[nH]c2ccc(F)cc12 the results were StopGo reporter -10%, MARV entry inh 13%[46.1 µM], LASV entry inh 3%, NS1 function inh 7%, SARS PLpro yeast 0% and RE007 growth inh 9%.
For CCCc1cc(C(=O)NC(C)C2CCCO2)cs1 (stereo not given) the results were StopGo reporter 25%, NS1 function inh 2%, SARS PLpro yeast -2% and RE007 growth inh 1%.
For C/C(=N/NC(=O)c1ccc(Br)o1)C(C)C the results were StopGo reporter -8%, MARV entry inh inconclusive, LASV entry inh inconclusive, NS1 function inh 7%, SARS PLpro yeast -6%, Cruzain inh noDet 14%, RE007 growth inh 7% and Cruzain inh Det 0.2%.
`O=C(N/N=C/c1ccc(OC(=O)c2ccc3c(c2)OCO3)cc1)c1cncc(Br)c1` gave StopGo reporter 3%, MARV entry inh 14%, LASV entry inh -6%, NS1 function inh 6%, SARS PLpro yeast 11%, Cruzain inh noDet inconclusive, RE007 growth inh 4% and Cruzain inh Det -28%.
For CSc1ncc(Cl)c(C(=O)Nc2ccccc2C)n1 the results were StopGo reporter -2%, MARV entry inh -2%, LASV entry inh 8%, NS1 function inh -3%, SARS PLpro yeast 2% and RE007 growth inh 2%.
Screening CCn1c(SCC(=O)Nc2nc3ccccc3s2)nc2c(c1=O)SC(C)C2 (stereo not given) returned StopGo reporter 32µM*, MARV entry inh inconclusive, LASV entry inh -27%, NS1 function inh -49%, SARS PLpro yeast -8%, Cruzain inh noDet -8%, RE007 growth inh -1% and Cruzain inh Det -11%.
Screening O=C(CN1C(=O)COc2ccc(S(=O)(=O)N3CCCCCC3)cc21)N1CCN(c2ccccc2)CC1 returned StopGo reporter -25%, MARV entry inh -30%[46.1 µM], LASV entry inh -29%[46.1 µM], Cruzain inh noDet 5% and Cruzain inh Det -5.2%.
`COCCN(C)Cc1cn(-c2ccc(F)cc2F)nc1-c1ccccc1C` gave StopGo reporter -13%, MARV entry inh inconclusive, LASV entry inh inconclusive, NS1 function inh -1%, SARS PLpro yeast -2% and RE007 growth inh -7%.
For COc1ccccc1CNc1cncnc1 the results were StopGo reporter -5%, MARV entry inh 3%, LASV entry inh -1%, NS1 function inh 0%, SARS PLpro yeast 1% and RE007 growth inh 9%.
For Cc1nn(-c2ccc(F)cc2)c2sc(C(=O)OC3CCOC3=O)cc12 (stereo not given) the results were StopGo reporter 12%, MARV entry inh -21%, LASV entry inh -14%, NS1 function inh -34%, SARS PLpro yeast 8%, Cruzain inh noDet inconclusive, RE007 growth inh -22% and Cruzain inh Det -7.8%.
For COc1ccc(CNC(=O)c2cc3c(=O)n4ccccc4nc3n(CC3CCCO3)c2=N)cc1 (stereo not given) the results were StopGo reporter -24%, MARV entry inh inconclusive, LASV entry inh -4%, NS1 function inh -5%, SARS PLpro yeast -3%, Cruzain inh noDet -7%, RE007 growth inh -2% and Cruzain inh Det -4.0%.
For COc1ccccc1NC(=S)N1CCC(c2nc3cc(C)c(C)cc3[nH]2)CC1 the results were MARV entry inh 4%, LASV entry inh 16%, NS1 function inh inconclusive, SARS PLpro yeast 0%, Cruzain inh noDet -4%, RE007 growth inh -10% and Cruzain inh Det 2.7%.
`CC(C)Cn1cnc2c(SCCc3ccccc3)nc(N)nc21` gave StopGo reporter 22%, MARV entry inh inconclusive, LASV entry inh 8%[46.1 µM] and RE007 growth inh 12%.
COc1ccc(CCN(C(=O)c2ccco2)C(C(=O)NC2CCCC2)c2ccncc2)cc1OC (stereo not given) was read as StopGo reporter 2%, MARV entry inh 21%[46.1 µM], LASV entry inh 2%[46.1 µM], NS1 function inh 0%, SARS PLpro yeast 1% and RE007 growth inh -5%.
Screening Cc1cc(C(=O)c2ccccc2)c(NC(=O)CN2CCOCC2)s1 returned StopGo reporter -9%, NS1 function inh -2%, Cruzain inh noDet 3%, RE007 growth inh -6% and Cruzain inh Det -3.2%.
`Cc1ccc(Nc2c(-c3ccc(N4CCOCC4)cc3)nc3c(C)cccn23)cc1` gave StopGo reporter -18%, MARV entry inh inconclusive, LASV entry inh -6%[46.1 µM], Cruzain inh noDet 0% and Cruzain inh Det -2.7%.
`COc1cc(NC(=S)NCc2ccco2)c(OC)cc1Cl` gave StopGo reporter -8%, MARV entry inh 0%[46.1 µM], LASV entry inh 4%[46.1 µM], SARS PLpro yeast -1% and RE007 growth inh -9%.
For COc1ccc(NC(=O)COc2cccc(-n3cnnn3)c2)cc1 the results were StopGo reporter 0%, MARV entry inh 0%[46.1 µM], LASV entry inh -14%, NS1 function inh 2%, SARS PLpro yeast 0% and RE007 growth inh -3%.
COC(=O)C1CCN(C(c2cc(OC)c(OC)c(OC)c2)c2sc3nc(C)nn3c2O)CC1 (stereo not given) was read as StopGo reporter -21%, MARV entry inh 0%, NS1 function inh -93%, SARS PLpro yeast 1%, Cruzain inh noDet 11%, RE007 growth inh -10% and Cruzain inh Det -4.3%.
Screening CCc1cccc(NC(=O)C2CCN(S(=O)(=O)c3ccc4[nH]c(=O)ccc4c3)CC2)c1 returned StopGo reporter -28%, NS1 function inh 3%, SARS PLpro yeast 7% and RE007 growth inh -1%.
Screening O=C(Nc1nc(-c2cc(F)ccc2F)cs1)c1ccccn1 returned StopGo reporter 45%[activator], MARV entry inh 7%[46.1 µM], LASV entry inh 15%, SARS PLpro yeast 2% and RE007 growth inh -9%.
For Cc1cc(NC(=O)COC(=O)c2ccc(S(=O)(=O)N3CCCC3)cc2)no1 the results were StopGo reporter 9%, NS1 function inh 13%, SARS PLpro yeast 0% and RE007 growth inh -7%.
For CC1CCN(Cc2c(C(=O)N/N=C/c3cc(Cl)ccc3O)nnn2-c2nonc2N)CC1 the results were StopGo reporter -15%, MARV entry inh 3.5µM*, LASV entry inh inconclusive, NS1 function inh -15%, SARS PLpro yeast inconclusive and RE007 growth inh -4%.
`CCCS(=O)(=O)N1CCCC(C(=O)NCCCN2CCN(c3ccccc3F)CC2)C1` (stereo not given) gave StopGo reporter -29%, MARV entry inh 8%&8%, LASV entry inh 10%, NS1 function inh 0%, SARS PLpro yeast -1%, Cruzain inh noDet 6%, RE007 growth inh -17% and Cruzain inh Det 1.0%.
Screening CN(C)c1ccc(/C=N/NC(=O)CCCCCNC(=O)c2ccccc2)cc1 returned StopGo reporter 46%[activator], MARV entry inh 20%[46.1 µM], LASV entry inh -24%, NS1 function inh -10%, SARS PLpro yeast -1% and RE007 growth inh 2%.
Cc1ccc(-c2ccc(CCC(=O)O)n2CC(=O)O)cc1 was read as MARV entry inh -5%, LASV entry inh 15%, NS1 function inh 11µM*, SARS PLpro yeast 6%, Cruzain inh noDet inconclusive, RE007 growth inh -8% and Cruzain inh Det -4.0%.
Screening COc1ccc(CCN2C(=O)CC(NNC(=O)c3ccc(F)cc3)C2=O)cc1OC (stereo not given) returned StopGo reporter -25%, MARV entry inh 23%, LASV entry inh -2%, NS1 function inh 10%, SARS PLpro yeast 8%, Cruzain inh noDet -5%, RE007 growth inh -23% and Cruzain inh Det 3.3%.
Screening O=C(NNC(=O)c1cc(-c2ccccc2)nc2ccccc12)c1csc(N2CCOCC2)n1 returned StopGo reporter -20%, MARV entry inh -32%, LASV entry inh inconclusive, SARS PLpro yeast -6% and RE007 growth inh 16%.
`O=C(Nc1ccccc1)c1cnc(-c2ccccc2)nc1-c1ccccc1` gave StopGo reporter -13%, MARV entry inh -17%, LASV entry inh inconclusive, NS1 function inh 12%, SARS PLpro yeast 19%, Cruzain inh noDet inconclusive, RE007 growth inh -8% and Cruzain inh Det 4.7%.
Cc1ccnc2nc(C(=O)OCC(=O)c3ccc(NC(=O)CC(C)C)cc3)nn12 was read as StopGo reporter 7%, MARV entry inh 14%[46.1 µM], LASV entry inh 20%[46.1 µM], SARS PLpro yeast 2% and RE007 growth inh 0%.
For COc1ccc(N(C(=O)C(C)C)S(=O)(=O)c2ccc3ccccc3c2)cc1 the results were StopGo reporter 18%, NS1 function inh -3%, SARS PLpro yeast 5% and RE007 growth inh 23%.
`CC(=O)N1N=C(c2cccc([N+](=O)[O-])c2)OC1c1ccc(Cl)cc1Cl` (stereo not given) gave StopGo reporter inconclusive, MARV entry inh -25%, LASV entry inh -20%, NS1 function inh -37%, SARS PLpro yeast -10%, Cruzain inh noDet -2%, RE007 growth inh -2% and Cruzain inh Det -4.3%.
`CCN(CC)CCCNC(=O)C1CCN(S(=O)(=O)CC)CC1` gave StopGo reporter -7%, LASV entry inh 0%[46.1 µM], Cruzain inh noDet -3% and Cruzain inh Det 0.1%.
C/C(=N\Nc1ccc([N+](=O)[O-])cc1)c1cccc(N)c1 was read as StopGo reporter 44%[activator], MARV entry inh 2%, NS1 function inh -74%, SARS PLpro yeast -18%, Cruzain inh noDet -22%, RE007 growth inh 3% and Cruzain inh Det -14%.
`CCCN1Cc2cccc(C(=O)Nc3ccc(S(=O)(=O)N4CCCCCC4)cc3)c2C1=O` gave MARV entry inh 0%&5%, LASV entry inh 2%, NS1 function inh -5%, SARS PLpro yeast 7%, Cruzain inh noDet 13%, RE007 growth inh 8% and Cruzain inh Det -0.9%.
`CC1=NN(C(N)=S)C(=O)C1N=Nc1cc(Cl)ccc1Cl` (stereo not given) gave StopGo reporter -4%, MARV entry inh inconclusive, LASV entry inh 14%[46.1 µM], NS1 function inh -5%, SARS PLpro yeast 0% and RE007 growth inh 0%.
`NC(=O)NCC1CC1` gave StopGo reporter -4%, NS1 function inh 3%, SARS PLpro yeast 1%, Cruzain inh noDet -4%, RE007 growth inh 6% and Cruzain inh Det 5.6%.
